PINK1 modulator: PINK1 expression modulation; AID 624263; PINK1 immunofluorescence, high-content cytometry, 24 h; actives 0.2% (n = 410,000); Potency, µM (series often up to 76.6 µM), inactives show at the highest dose activation (PINK1 increase), usual class: activators; active = well fitted activation curve with a large enough effect; inconclusive = small, poorly fitted or top-dose-only effect; inactive = flat fitted curve, though single readings scatter; cell line not stated here;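 also: potency is read from the fitted curve at half-maximal effect; % of control where 0% means no effect; nearly all actives have a fitted effect of over 65% in size; a mitochondrial uncoupler was the plate control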
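Cells are seeded, rested 12 hours, then given compound at five concentrations or DMSO for 24 hours. After fixation, blocking and antibody staining, PINK1 amount and mitochondrial localization are scored; CCCP serves as control.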
TRPML1 ag: human mucolipin-1 channel agonism | TRPML1-expressing cells, Ca2+ dye fluorescence, FDSS; host cell line not named in the record; reference of the full effect not given here | activation, % (test concentration not listed) | actives 0.12% (n = 410,000) | AID 624414; in the data active = activation above about 50%; inconclusive = about 30% to 50%; inactive = below about 30%; also: 0% is about no effect; the text of the record puts the active cut at 80%
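Tetracycline-induced TRPML1-DL cells are seeded and incubated overnight before loading with a no-wash Ca2+ dye and quencher. Agonist activity is taken from the 110 s fluorescence read following compound pin-transfer on an FDSS, before EC80 54-4 challenge.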
Six1-Eya2 inh: inhibitors of human Six1/Eya2 interaction; Q15475+O00167; AlphaScreen GST-Six1/His-Eya2 binding, biochemical; active compounds read low; control for the full effect not named in the record; activity change, % (test concentration not listed); actives 0.56% (n = 360,000); in the data active = activity change below about -65%; inconclusive = about -30% to -65%; inactive = above about -30%; also: % is scaled to controls: 0 for no effect and ±100 for the full control effect
Target sequence (O00167 whole entry, looked up): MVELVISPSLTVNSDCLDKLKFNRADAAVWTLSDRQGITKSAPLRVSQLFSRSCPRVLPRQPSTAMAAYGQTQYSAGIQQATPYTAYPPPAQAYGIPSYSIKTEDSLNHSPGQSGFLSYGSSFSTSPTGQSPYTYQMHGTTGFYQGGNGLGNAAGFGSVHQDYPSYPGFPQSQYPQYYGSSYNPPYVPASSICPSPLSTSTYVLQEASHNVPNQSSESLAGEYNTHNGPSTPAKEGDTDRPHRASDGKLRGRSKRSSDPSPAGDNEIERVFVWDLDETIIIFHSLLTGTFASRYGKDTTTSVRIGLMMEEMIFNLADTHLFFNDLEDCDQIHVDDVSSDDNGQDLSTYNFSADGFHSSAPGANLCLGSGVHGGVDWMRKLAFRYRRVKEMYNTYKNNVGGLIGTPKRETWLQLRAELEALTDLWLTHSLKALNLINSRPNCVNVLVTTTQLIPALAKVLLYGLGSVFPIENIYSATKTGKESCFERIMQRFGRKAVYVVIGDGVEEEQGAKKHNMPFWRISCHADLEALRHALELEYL
Target sequence (Q15475 whole entry, looked up): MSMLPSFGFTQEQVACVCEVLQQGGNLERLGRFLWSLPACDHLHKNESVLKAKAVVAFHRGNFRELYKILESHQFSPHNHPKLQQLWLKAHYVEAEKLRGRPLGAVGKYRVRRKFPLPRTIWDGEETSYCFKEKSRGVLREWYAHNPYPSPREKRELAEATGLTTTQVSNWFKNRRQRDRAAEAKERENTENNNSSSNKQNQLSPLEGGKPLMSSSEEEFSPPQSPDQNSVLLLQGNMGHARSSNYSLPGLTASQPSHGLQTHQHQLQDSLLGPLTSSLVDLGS
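AlphaScreen luminescence read after one hour at 37 °C in darkness. Pin-transferred compounds met GST-Six1 and His-Eya2 protein (5X stock 250 nM/500 nM) plus glutathione donor and Ni-chelate acceptor beads (5X, 50 ug/mL).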
CtBP-E1A inh: inhibitors of CtBP/E1A interaction; AlphaScreen GST-E1A/His-CtBP binding, 1536-well; active compounds read low; control for the full effect not named in the record; activity change, % (test concentration not listed); actives 0.49% (n = 340,000); AID 651724; in the data active means activity change below about -65%; inconclusive means about -30% to -65%; inactive means above about -30%; also: % is scaled to controls: 0 for no effect and ±100 for the full control effect
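Protein mix (5X: 125 nM each GST-E1A, His-CtBP) was incubated with pinned compound 2 h at 37 deg C in dark, in 50 mM Tris pH 8.0 buffer with 300 mM NaCl. Glutathione donor and nickel acceptor beads followed; AlphaScreen signal read after 1 h.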
TRPML1 blocker: human mucolipin-1 channel inhibition; Q9GZU1; AID 624415; activity change, negative = inhibition, % (no concentration beside the values); TRPML1-inducible cells, Ca2+ dye fluorescence, FDSS; active compounds read low; inhibition of EC80 agonist-evoked calcium signal; actives 0.02% (n = 390,000); in the data active means activity change below about -50%; inconclusive means about -30% to -50%; inactive means above about -30%;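 also: stimulus is agonist 54-4 at its EC80 concentration; % is scaled to controls: 0 for no effect and ±100 for the full control effect; compound concentration not given in the record; the text of the record puts the active cut at -80%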
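Calcium fluorescence in TRPML1-DL cells induced overnight with Tet: a 110 s read after compound pin addition, then a 110 s antagonist read after challenge with 54-4 at 4 uM final (EC80).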
D2 agonist: human D2 receptor agonism in beta-arrestin assay. DiscoveRx PathHunter D2 beta-arrestin, luminescence, 90 min; 100% = 57 uM dopamine signal. activation, % (concentration not given with the values). P14416. actives 0.084% (n = 360,000); in the data active = activation above about 40%; inconclusive = about 15% to 40%; inactive = below about 15%; also: compound concentration not given in the record; the text of the record calls up to 30% inactive
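Agonist mode: compounds alone added to overnight-plated D2 PathHunter cells for 90 min at 37 C, with 57 uM final dopamine (EC100) defining full response. Beta-arrestin recruitment detected by chemiluminescent reagent, read after 1 h at ambient temperature.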
An asterisk follows results filed as active; ? = inconclusive; · = not tested or not shown; & = joins results of further samples; [ ] = another dose, or the depositor's remark.

smiles,PINK1 modulator,TRPML1 ag,Six1-Eya2 inh,CtBP-E1A inh,TRPML1 blocker,D2 agonist
BrC(=C\c1ccccc1)/C=N/Nc1nc2ccccc2[nH]1,3.2%,1.4,-12,-3,26,2.7
C[C@H]1NS(=O)(=O)c2ccc(Br)cc2O[C@H]1c1ccccc1,-0.8%,0.2,5,3,-10,-0.7
Cc1ccc(N2CC(C(=O)NCc3ccc(C)n3C)CC2=O)cc1 (centres undefined),0.6%,0.4,1,1,-2,1.1
O=C(c1cccnc1)N1CCN(S(=O)(=O)c2ccc(F)cc2)CC1,2.5%,0.2,-3,-8,2,3.4
COc1ccc(/C=C(\NC(=O)c2ccc(C)cc2)C(=O)NCC2CCCO2)cc1 (centres undefined),-2.0%,2.7,7,1,-6,-2.5
Cc1ccccc1C(=O)Nc1nnc(S(=O)(=O)N(C)Cc2ccco2)s1,0.7%,2.0,-2,-4,11,10.0
CCSc1nnc(-c2cccc(S(=O)(=O)N(CC)CC)c2)n1Cc1ccccc1,4.6%[38.3 µM],1.3,21,47,-9,0.5
CC1Oc2ccccc2C=C1/C=N/NC(=O)c1ccncc1 (centres undefined),9.0%,-0.6,12,5,1,-1.4
N#CCc1nn(-c2ccccc2)c(N)c1C#N,0.2%,-1.1,-9,-1,-9,-1.3
Cc1nn(-c2ccccc2)c(Cl)c1CN(C(=O)CCl)c1cccc2ccccc12,-3.0%,-0.2,-9,7,-16,-1.7
COc1ccc(-c2nnc3c4ccccc4c(-c4ccccc4)nn23)cc1,2.7%,-0.4,·,·,-3,·
Cc1ccc(C2=NC(c3ccccc3)=Nc3ccc(Cl)cc3N2)cc1,2.0%,1.0,·,·,-29,·
Cc1ccc(NC(=O)Cn2c(=O)n(Cc3ccccc3)c(=O)c3c(C)c(C)sc32)c(C)c1,0.2%,0.5,·,·,10,·
C=CCNc1oc(-c2ccc(OCC)cc2)nc1C#N,?,1.8,-4,6,9,4.5
CCN(C(=O)CSc1nnnn1-c1ccc(Cl)cc1)C1CCS(=O)(=O)C1 (centres undefined),-1.2%,0.3,-1,-10,17,-7.6
COc1cc(/C=C2/C(=O)NN(c3cccc(F)c3)C2=O)ccc1OC(=O)c1ccco1,1.5%,-0.2,-11,-16,-6,-1.1
CCOC(=O)N1CCN(C(=O)c2ccccc2NC(C)=O)CC1,1.1%,-0.1,-1,2,14,-13
Cc1ccccc1OCc1nnc(SCC(=O)NCc2ccccc2)n1C,-1.1%,2.1,-3,4,6,-0.7
CC(C)c1ccc(C(C(C(=O)c2ccccc2)N2CCOCC2)N2CCOCC2)cc1 (centres undefined),3.3%,4.8,8,1,53,-3.0
Cc1cc(Br)c(NC(=O)COC(=O)C2CCCCC2)c(Br)c1,0.7%,0.1,-3,10,-12,-1.7
CCCP(=O)(CC(=O)N(CC)CC)c1ccccc1 (centres undefined),-0.6%,-0.2,9,6,2,-1.7
O=C(Nc1nccs1)c1sc2cc(Cl)ccc2c1Cl,0.7%,0.7,23,0,-10,-1.5
CCc1ccc(CNC(=O)Cn2nc(-c3ccccc3)ccc2=O)cc1,1.6%,-0.4,1,-18,11,-1.8
Cc1c(Cl)cccc1NC(=O)Cn1nc(C)n2cccc2c1=O,-1.3%,0.4,0,3,-16,-4.8
O=C(NCc1ccccc1Cl)c1ccc2c(=O)n(CC3CCCO3)c(=S)[nH]c2c1 (centres undefined),3.6%,0.9,13,4,1,0.2
Cc1cccc(C)c1NC(=O)CSc1ncnc2[nH]ncc12,5.5%,0.6,-9,-2,-7,-8.3
COc1ccc(OC)c(NC(=O)Cn2c(=O)oc3ccccc32)c1,-1.8%,0.8,-3,-10,-14,-2.3
Clc1ccc(-n2ncc3c(N4CCCCCC4)ncnc32)cc1,1.9%,-1.4,1,-1,18,-7.0
CCn1cnc2sc(C(=O)Nc3ccccc3OC)c(C)c2c1=O,3.9%,0.7,-3,·,22,0.1
COCCn1c(SCC(=O)NC2CCCCC2)nc2c(c1=O)SCC2,1.9%,0.0,6,7,2,1.9
CC(C)(C)c1ccc(CC(=O)N2CCC2(C)C(=O)NS(=O)(=O)c2cccc(OC(F)F)c2)cc1 (centres undefined),1.5%,0.0,6,6,·,-2.7
COc1ccc(S(=O)(=O)N(C)C[C@@H]2Oc3cc(C#CC4CCCCC4)ccc3S(=O)(=O)N([C@@H](C)CO)C[C@@H]2C)cc1,2.2%,0.3,8,-3,-6,-6.6
O=C(Nc1nc2c(F)cc(F)cc2s1)C1CC1,3.8%,0.5,-2,-14,-5,-4.2
Cc1noc(C)c1C(=O)N1CCOCC1,-4.0%,0.8,2,31,-20,-0.4
COCCCNC(=O)C[C@H]1C[C@H](C(=O)N2CCOCC2)[C@@]2(CCC3CCCC3)c3[nH]c4cc(-c5ccco5)ccc4c3CCN2C1=O,3.5%,0.6,-5,-2,55,-2.9
C/C(=N\NC(=O)C1CC1)c1ccccc1O,1.5%,-0.2,-22,-3,-3,-2.9
CCOC(=O)c1ccccc1NC(=O)Cn1cnc2c(cnn2-c2ccc(F)cc2)c1=O,1.2%,-0.1,5,0,-6,0.3
C[C@H]1CCC(=O)N([C@H](CC#N)Cc2ccccc2)CC1,0.2%,-0.7&-0.8,1,4,-3,-1.5
CCCC(=O)Nc1cc(C)c(NC(=O)c2ccncc2)cn1,-1.6%,-0.4,7,6,-4,-2.0
CNC(=O)c1cc2n(n1)CCCN(Cc1ccc(F)cc1)C2=O,0.4%,0.3,·,·,11,·
O=C(C1CC(c2ccc(F)cc2)=NO1)N1CCc2ccccc2C1 (centres undefined),1.4%,-0.1,-3,2,50,-4.3
O=C(O)c1cccc2c1C(=O)c1ccc(Cl)cc1S2(=O)=O,-0.3%,-0.8,-1,6,20,-2.8
Cc1cc(NC(=O)c2cc([N+](=O)[O-])cc([N+](=O)[O-])c2C)no1,-0.8%,-1.1,-10,-7,1,?
O=C(Cc1nnc(NC(=O)c2ccccc2)s1)N/N=C/c1cccc(O)c1,7.7%,-0.1,-3,-4,-7,-0.4
CC(C)(C)c1ccc(OCC(=O)NCCN2CCOCC2)cc1,0.1%,-0.3,-4,0,5,-1.1
COc1ccc(CCNS(=O)(=O)c2cc3c4c(c2)CCN4C(=O)CC3)cc1OC,-0.8%,-0.5,-7,4,-13,-1.4
c1ccc(CSc2nc3ccccc3[nH]2)cc1,0.5%,-0.2,-1,4,9,0.2
CCCS(=O)(=O)Nc1cccc(-c2nc3cccnc3s2)c1,1.7%,0.1,-23,?,8,-4.3
O=C(NC(=O)c1ccc(F)cc1)Nc1nc(-c2cccs2)cc(C(F)(F)F)n1,2.1%,-1.5,4,1,4,-2.3
COCCNC(=O)CN(C(=O)c1ccc(N2CCCC2)nc1)c1ccccc1,-0.2%,0.2,-2,-16,-6,1.4
COc1ccc(NC(=O)CC(c2ccccc2)c2ccco2)cc1 (centres undefined),5.7%,1.5,-5,21,12,-2.4
CC(NC(=O)CN1C(=O)NC2(CCCCC2)C1=O)c1ccc(S(N)(=O)=O)cc1 (centres undefined),2.2%,0.8,-1,11,15,-0.1
CN1CCN(C(=O)/C(=C/c2cn(S(=O)(=O)N(C)C)c3ccccc23)NC(=O)c2ccccc2)CC1,-0.3%,0.5,-4,-3,0,-4.5
CCC(Sc1ncnc2sc3c(c12)CCCC3)C(=O)OC(C)C (centres undefined),0.5%,1.4,·,·,33,·
CCCN1CCC(NC(=O)Cc2ccccc2C)CC1,0.5%,0.3,3,-3,1,-3.9
COc1cccc(NC(=O)CN(C)CC(=O)NCc2ccc(F)cc2)c1,-0.5%,1.3,2,7,11,-1.0
CC(C)CCN(CCC(C)C)CC(O)Cn1c2ccccc2c(=O)c2ccccc21 (centres undefined),10%,-0.8,11,·,-7,-3.4
CCc1cccc(NC(=O)c2cnc(SC)nc2-c2ccccc2)c1,0.8%,3.2,·,·,12,·
Cc1ccccc1S(=O)(=O)N1[C@@H](c2cccc(Cl)c2)C(C(=O)OC(C)(C)C)=CC[C@H]1c1ccc(Cl)cc1,3.8%,-0.5,17,-19,-17,-4.6
CNC(=O)C1CC(=O)N(CCc2ccc(OC)c(OC)c2)C(=Nc2ccc(F)cc2)S1 (centres undefined),-1.1%,0.9,0,1,50,0.9

Following part.
smiles,PINK1 modulator,TRPML1 ag,Six1-Eya2 inh,CtBP-E1A inh,TRPML1 blocker,D2 agonist
Cc1csc(NC(=O)c2c(-c3c(F)cccc3Cl)noc2C)n1,0.3%,0.8,-8,-8,-1,-1.9
Cc1nn(C(=O)CNC(=O)c2ccccc2)c(C)c1C,-0.1%,1.0,1,-4,1,-7.4
O=C(c1ccc2c(=O)n(C3CCCC3)c(=S)[nH]c2c1)N1CCCCCC1,3.8%,0.3,-5,-13,12,2.6
O=C(NCCC1CCCCN1S(=O)(=O)c1cccs1)C(=O)Nc1ccccc1 (centres undefined),0.4%,2.0,-18,1,39,-4.8
COc1ccc(C(CNC(=O)c2cncc(Br)c2)N(C)C)cc1 (centres undefined),-0.4%,1.2,6,-6,-4,-4.3
CN(C)c1ccc(/C=C/c2nc3ccccc3c(=O)n2CCO)cc1,-1.0%,1.4,-2,-2,-15,4.5
Nc1ncnc(NC2CCS(=O)(=O)C2)c1[N+](=O)[O-] (centres undefined),0.6%,-1.3,-6,4,-11,3.3
COc1cc(OC)cc(-c2nc3nc(C)c(CCC(=O)Nc4ccc(C)cc4)c(C)n3n2)c1,0.8%,-0.2,·,·,-16,·
O=C(CN1C(=O)C2C3CCC(C3)C2C1=O)OCC(=O)c1ccccc1 (centres undefined),0.2%,0.2,-5,1,-5,-5.3
CC(=O)Oc1ccc2c(=O)c(Oc3ccccc3)coc2c1OC(C)=O,-0.6%,-0.3,-8,-6,-25,7.9
COc1ccc(CCCC(=O)NC2CCCCC2)cc1,11%[38.3 µM],-0.4,0,6,22,-2.4

One compound at a time (already shown):
Shown for Cc1csc(NC(=O)c2c(-c3c(F)cccc3Cl)noc2C)n1 = PINK1 modulator = 0.3%; TRPML1 ag = 0.8; Six1-Eya2 inh = -8; CtBP-E1A inh = -8; TRPML1 blocker = -1; D2 agonist = -1.9
Shown for CC(=O)Oc1ccc2c(=O)c(Oc3ccccc3)coc2c1OC(C)=O = PINK1 modulator = -0.6%; TRPML1 ag = -0.3; Six1-Eya2 inh = -8; CtBP-E1A inh = -6; TRPML1 blocker = -25; D2 agonist = 7.9
Shown for O=C(NCCC1CCCCN1S(=O)(=O)c1cccs1)C(=O)Nc1ccccc1 (centres undefined) = PINK1 modulator = 0.4%; TRPML1 ag = 2.0; Six1-Eya2 inh = -18; CtBP-E1A inh = 1; TRPML1 blocker = 39; D2 agonist = -4.8

Source: PubChem BioAssay
